Compound activity deposited in PubChem by Broad Institute.
FGF22 binding – shifts melting point of recombinant human FGF22 | Q9HCT0 | recombinant FGF22 thermal shift, SYPRO orange fluorescence; percent of sucrose octasulfate shift, DMSO zero | calls only at 9.99 µM | 1.5% of 340,000 active | AID 651658;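 active = melting point raised past a set limit in the mean and every replicate; three in four hits are not shown here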
Target sequence (Q9HCT0 whole entry, looked up): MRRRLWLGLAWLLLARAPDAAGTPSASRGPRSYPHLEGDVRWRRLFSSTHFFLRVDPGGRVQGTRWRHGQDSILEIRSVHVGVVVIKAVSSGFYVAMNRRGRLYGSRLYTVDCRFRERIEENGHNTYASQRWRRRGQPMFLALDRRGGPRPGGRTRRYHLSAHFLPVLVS
rRNA inh HTS – inhibits bacterial ribosomal RNA function over humanized ribosomes. 1.6% of 350,000 active. GFP signal change (wild-type ribosome), % (concentration not given with the values). E. coli WT GFP vs humanized-ribosome RFP mutants, fluorescence, 24 h; stronger effect = lower value; DMSO median 0, no signal -100;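 active = significant combined selectivity score with lowered wild-type GFP, culture density cut under 30%, mutant RFP and density less affected; inactive = any of these conditions unmet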; note: one replicate is shown; some compounds called inactive have numbers as strong as hits
AF4-AF9 inh – inhibitors of human MLL-AF4/AF9 interaction; 0.47% of 350,000 active; inhibition, % at 10 µM; AlphaScreen, biotin-AF4 peptide binding to FLAG-AF9;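 active = every replicate reaching a set inhibition limit, whatever the replicate mean, cut at about 25% in these data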;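 note: 0% = plate neutral control median and 100% = total signal loss; the record names both 10 and 1 µM as test concentration; the first replicate is given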
Target sequence (P42568 whole entry, looked up): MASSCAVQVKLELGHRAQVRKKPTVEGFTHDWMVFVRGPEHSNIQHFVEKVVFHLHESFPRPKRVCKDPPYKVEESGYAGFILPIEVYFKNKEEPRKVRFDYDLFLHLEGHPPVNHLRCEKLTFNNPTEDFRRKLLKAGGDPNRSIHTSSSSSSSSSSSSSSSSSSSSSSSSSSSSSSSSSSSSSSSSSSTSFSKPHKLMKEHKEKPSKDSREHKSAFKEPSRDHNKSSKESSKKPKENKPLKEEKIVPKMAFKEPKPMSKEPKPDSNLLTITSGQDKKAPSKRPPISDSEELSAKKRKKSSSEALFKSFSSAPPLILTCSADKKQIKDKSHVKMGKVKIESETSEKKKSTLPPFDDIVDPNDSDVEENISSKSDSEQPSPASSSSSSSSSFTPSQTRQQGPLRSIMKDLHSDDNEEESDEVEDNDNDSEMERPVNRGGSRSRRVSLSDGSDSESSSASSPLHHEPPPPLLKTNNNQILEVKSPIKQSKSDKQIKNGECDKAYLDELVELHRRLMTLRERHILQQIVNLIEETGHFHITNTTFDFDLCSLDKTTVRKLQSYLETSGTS
rRNA inh HTS OD600 – further read-out of rRNA inh HTS, marked with its call; OD600 change, %; measured here: OD600 growth;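 optical density of the mix in the first replicate; 0 = DMSO median and -100 = no signal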
rRNA inh HTS RFP – also measured in rRNA inh HTS; calls as there; RFP signal change, %; measured here: RFP humanized mutant strains;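 first replicate; 0 = DMSO median and -100 = no signal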
An asterisk follows results filed as active; i = inactive; & = joins results of further samples. Some of the compounds tested, so the mix of outcomes need not match the whole.

FGF22 binding	rRNA inh HTS	rRNA inh HTS OD600	rRNA inh HTS RFP	AF4-AF9 inh	molecule
i	1	-3	0.6	5.9	C[C@@H]1CN([C@H](C)CO)C(=O)c2cc(NC(=O)CCCN(C)C)ccc2O[C@H]1CN(C)Cc1ccc(Cl)c(Cl)c1
i	-1	6	-0.2	1.9	CCc1ccc(N2CC(C(=O)N3CCN(c4ccc([N+](=O)[O-])cc4)CC3)CC2=O)cc1 (centres undefined)
i	1	7	2.1	-2.9	C[C@H]1CN([C@@H](C)CO)C(=O)c2cc(-c3ccncc3)cnc2O[C@@H]1CN(C)C(=O)C1CCOCC1
i	1	1	-0.7	-5.6	CO[C@H]1CN(C)C(=O)c2cc(NC(C)=O)ccc2OC[C@@H](C)N(Cc2nccs2)C[C@H]1C
i	1	7	-0.8	-4.9	CCCN1C[C@@H](C)[C@@H](OC)CN(C)C(=O)c2cc(NC(=O)c3cnccn3)ccc2OC[C@@H]1C
i	-4	4	-1.9	-3.1	O=C(CN1CCOCC1)N1CC2(C1)[C@H](c1ccccc1)[C@H](CO)N2Cc1cccc(F)c1
i	-1	6	-1.3	2.8	CNC[C@H]1OCCCC[C@@H](C)Oc2ccc(NC(=O)Nc3ccc4c(c3)OCO4)cc2C(=O)N([C@H](C)CO)C[C@@H]1C
i	4	18	-2.2	-1.8	COCCCN1C(=O)C(CC(=O)NC2CCCC2)CC(C(=O)N(C(C)C)C(C)C)=C1C (centres undefined)
i	3	5	-0.7	1.4	CC=Cc1ccc2n(c1=O)C[C@@H]1[C@@H](CO)[C@H](C(=O)NC3CCC3)[C@H]2N1Cc1cccnc1 (mixture of isomers)
i	4	10	-0.8	-13	CC(=O)N1[C@H](CO)[C@H](c2ccccc2)C12CN(C(=O)c1ccccn1)C2
i	-2	1	-0.8	-3.3	O=C(C1CCCC1)N1C[C@H]2[C@@H](c3ccccc31)[C@H](CO)N2C(=O)c1cccnc1
i	-4	-20	0.8	-9.7	C[C@H]1CN([C@@H](C)CO)S(=O)(=O)c2ccc(-c3ccc(F)cc3)cc2O[C@H]1CN(C)S(C)(=O)=O
i	2	-22	-0.2	3.5	O=C(c1[nH]c(C(F)(F)F)nc1-c1ccccc1)N1CCN(c2ncccc2C(F)(F)F)CC1
i	2	4	-2.7	-0.5	COCCNC(=O)C[C@H]1CC[C@H]2[C@H](COc3ccc(NC(=O)COC)cc3C(=O)N2C)O1
i	14	12	3.9	-2.6	CCCC/C=C/c1cccc2nncn12
i	3	12	0.5	1.7	CCCC(=O)N1CCC2(CC1)CN(C(=O)Nc1c(C)noc1C)[C@H](CO)c1c2c2ccc(OC)cc2n1C
i	-2	7	0.7	-0.7	C[C@@H]1CCCCO[C@H](CN(C)S(=O)(=O)c2cn(C)cn2)[C@H](C)CN([C@@H](C)CO)C(=O)c2cc(NC(=O)CCCCCC(=O)Nc3ccccc3N)ccc2O1
i	-2&-9	1&-7	-2.0&-4.6	-0.9	O=S(=O)(NCC[C@@H]1CC[C@H](NS(=O)(=O)c2cccc(F)c2)[C@@H](CO)O1)c1cccc(F)c1
i	-5	5	4.5	1.7	COc1ccc2c3c([nH]c2c1)[C@H](CO)N(Cc1cccc(Cl)c1)CC31CN(C)C1
i	13	12	0.2	0.1	COc1cc(CN2C[C@@H](CO)O[C@@H](n3cnc4c(N5CCOCC5)ncnc43)C2)cc(OC)c1OC

Some of these compounds in order of count of non-hydrogen atoms, falling:
FGF22 binding	rRNA inh HTS	rRNA inh HTS OD600	rRNA inh HTS RFP	AF4-AF9 inh	molecule
i	-2	7	0.7	-0.7	C[C@@H]1CCCCO[C@H](CN(C)S(=O)(=O)c2cn(C)cn2)[C@H](C)CN([C@@H](C)CO)C(=O)c2cc(NC(=O)CCCCCC(=O)Nc3ccccc3N)ccc2O1
i	13	12	0.2	0.1	COc1cc(CN2C[C@@H](CO)O[C@@H](n3cnc4c(N5CCOCC5)ncnc43)C2)cc(OC)c1OC
i	1	7	-0.8	-4.9	CCCN1C[C@@H](C)[C@@H](OC)CN(C)C(=O)c2cc(NC(=O)c3cnccn3)ccc2OC[C@@H]1C
i	2	4	-2.7	-0.5	COCCNC(=O)C[C@H]1CC[C@H]2[C@H](COc3ccc(NC(=O)COC)cc3C(=O)N2C)O1
i	4	18	-2.2	-1.8	COCCCN1C(=O)C(CC(=O)NC2CCCC2)CC(C(=O)N(C(C)C)C(C)C)=C1C (centres undefined)

Three records drawn at random from the list so far:
FGF22 binding	rRNA inh HTS	rRNA inh HTS OD600	rRNA inh HTS RFP	AF4-AF9 inh	molecule
i	-2	7	0.7	-0.7	C[C@@H]1CCCCO[C@H](CN(C)S(=O)(=O)c2cn(C)cn2)[C@H](C)CN([C@@H](C)CO)C(=O)c2cc(NC(=O)CCCCCC(=O)Nc3ccccc3N)ccc2O1
i	3	5	-0.7	1.4	CC=Cc1ccc2n(c1=O)C[C@@H]1[C@@H](CO)[C@H](C(=O)NC3CCC3)[C@H]2N1Cc1cccnc1 (mixture of isomers)
i	1	7	2.1	-2.9	C[C@H]1CN([C@@H](C)CO)C(=O)c2cc(-c3ccncc3)cnc2O[C@@H]1CN(C)C(=O)C1CCOCC1

(more compounds)
FGF22 binding	rRNA inh HTS	rRNA inh HTS OD600	rRNA inh HTS RFP	AF4-AF9 inh	molecule
i	-5	-2	2.1	-1.1	Cc1ccccc1S(=O)(=O)N[C@H]1CC[C@H](CCNS(=O)(=O)c2cccc(F)c2)O[C@@H]1CO
i	4	5	-0.8	-1.7	C[C@@H](NC(=O)C[C@@H]1C=C[C@H](NC(=O)CN2CCOCC2)[C@@H](CO)O1)c1ccccc1
i	-1	0	1.5	2.2	CCC(=O)Nc1ccc2c(c1)C(=O)N(C)C[C@H](OC)[C@@H](C)CN(C(=O)COC)[C@@H](C)CO2
i	-11	-41	3.8	1.7	Cc1ccc(S(=O)(=O)N[C@@H]2CC[C@@H](CC(=O)NCc3ccc(Cl)c(Cl)c3)O[C@@H]2CO)cc1
i	3	5	-1.8	26*	Cc1ccc(S(=O)(=O)N(C)C[C@@H]2OCCCC[C@H](C)Oc3ccc(NC(=O)NC4CCCCC4)cc3C(=O)N([C@@H](C)CO)C[C@H]2C)cc1
i	2	-18	21	2.5	C[C@H](CO)N1C[C@H](C)[C@H](CN(C)Cc2ccc(Oc3ccccc3)cc2)Oc2ccc(NC(=O)Nc3ccc(F)cc3)cc2C1=O
i	-1	9	-0.4	1.2	Cc1ccc(S(=O)(=O)N(C)C[C@H]2Oc3c(NC(=O)NC4CCCCC4)cccc3C(=O)N([C@@H](C)CO)C[C@@H]2C)cc1
i	-19	-9	14	0.3	COc1ccccc1NC(=O)N1C[C@H]2[C@@H](c3ccccc31)[C@@H](CO)N2CC1CCCC1
i	23	25	0.8	-5.3	O=C1OC(C(Cl)(Cl)Cl)Nc2ccccc21 (centres undefined)
i	1&7	3&5	-1.0&1.1	-3.2&0.4	CN1CCN(C(=O)C[C@@H]2C=C[C@H](NS(=O)(=O)c3cccc(F)c3)[C@@H](CO)O2)CC1
i	-3	-5	4.7	0.1	COc1ccc([C@H]2C[C@H](O)[C@@H](n3cc(COC(=O)c4ccccc4)nn3)CN2C(=O)C2CCCCC2)cc1
i	11	-2	-0.8	6.5	COc1ccc(Cc2c(-c3ccccc3)nc3ccc(Cl)cn23)c(C)c1
i	0	11	-2.3	-14	CN(C)C(=O)C[C@@H]1CC[C@@H](NS(=O)(=O)c2ccccc2)[C@@H](CO)O1
i	1	-7	-0.8	-1.8	CCCNC(=O)N[C@@H]1CC[C@H](CC(=O)NCCc2ccccc2)O[C@H]1CO
i	-4	-3	3.0	-2.9	COc1cccc(-c2ccc3c(c2)[C@H]2[C@H](CCN2C(=O)C2CCOCC2)[C@H](CO)N3)c1
i	1	3	0.6	1.6	C[C@@H]1CN([C@@H](C)CO)C(=O)c2cccc(NC(=O)Nc3ccc(C(F)(F)F)cc3)c2O[C@@H]1CN(C)S(=O)(=O)c1ccc(Cl)cc1
i	-56	-74	-17	3.1	O=C(Nc1cccc(F)c1)N1CCCCN2[C@H](CO)[C@@H](c3ccc(-c4ccccc4F)cc3)[C@H]2C1
i	-5	12	8.4	-5.2	CC(=O)Nc1cc2c(cc1[N+](=O)[O-])-c1ccccc1C2=NO
i	2	-7	-1.7	-0.6	Cc1noc(C)c1S(=O)(=O)Nc1ccc2c(c1)C(=O)N([C@H](C)CO)C[C@H](C)[C@H](CN(C)S(=O)(=O)c1ccc(F)cc1)O2
i	12	16	2.2	1.4	O=C(c1cc(C2CCCCN2S(=O)(=O)Cc2ccccc2)on1)N1CCOCC1 (centres undefined)
i	-1	-6	1.9	0.7	COc1ccc(S(=O)(=O)N2CCOC2CNC(=O)C(=O)NCc2ccc3c(c2)OCO3)cc1C (centres undefined)
i	1	-2	-2.1	-14	Cc1noc(C)c1S(=O)(=O)N(C)C[C@@H]1Oc2c(cccc2N(C)C)C(=O)N([C@H](C)CO)C[C@@H]1C
i	-1	2	0.6	-1.5	C[C@H](CO)N1C[C@H](C)[C@H](CN(C)Cc2ccc3c(c2)OCCO3)OCc2cnnn2CCCC1=O
i	0	2	-0.8	-0.9	O=C(C[C@H]1C=C[C@@H](NC(=O)C2CCC2)[C@@H](CO)O1)NCCCN1CCOCC1
i	-5	-4	-1.7	-0.4	C[C@H]1CN([C@@H](C)CO)C(=O)c2cc(-c3ccc(C#N)cc3)cnc2O[C@@H]1CN(C)Cc1ccncc1
i	-4	-2	3.5	-2.0	CN1[C@@H]2Cn3c(ccc(-c4ccc(F)cc4)c3=O)[C@H]1[C@@H](C(=O)Nc1nccs1)[C@@H]2CO
i	-41	-67	-5.1	-1.9	O=C(Cc1ccccc1)N1CC(=O)N2[C@H](CO)[C@@H](c3ccc(-c4ccc(F)cc4)cc3)[C@@H]2C1
i	9	10	1.6	-1.4	COc1cc(CN(C(C)=O)c2ccccc2C(=O)O)ccc1[N+](=O)[O-]
i	-3	4	-1.3	-0.8	CCN(CC(=O)Nc1ccccc1C(F)(F)F)C(=O)c1ccc(-n2nc(C)c(CCC(=O)OC)c2C)cc1
i	-1	1	1.9	-0.5	O=C(c1ccc(F)cc1)N1CC(=O)N2[C@H](CO)[C@@H](c3ccc(-c4cccnc4)cc3)[C@@H]2C1
i	-4	-21	-4.5	3.0	Cc1cc(C)cc(-n2c3ccc(NC(=S)NC4CCCCC4)cc3c(=O)n2C)c1
i	3	6	-0.3	1.1	Cc1noc(C)c1NC(=O)Nc1ccc2c(c1)CC(=O)N([C@@H](C)CO)C[C@@H](C)[C@H](CN(C)C(=O)Nc1ccc(C(F)(F)F)cc1)O2
i	-2	8	-1.3	-1.6	COc1cccc(C#Cc2cnc3c(c2)C(=O)N([C@@H](C)CO)C[C@@H](C)[C@@H](CN(C)C(=O)C2CCOCC2)O3)c1
i	0	4	0.0	0.9	COc1ccccc1OCc1cc(C(=O)N(C)CCC2CCOCC2)no1
i	4	6	-4.1	-1.9&2.9	CNC[C@@H]1Oc2ncc(-c3ccc(OC)cc3)cc2C(=O)N([C@H](C)CO)C[C@@H]1C
i	7	-3	0.3	0.1	COCCNC(=O)C1CCCN(C(=O)c2oc3ccccc3c2C)CC1 (centres undefined)
i	0	-45	16	5.3	COc1ccc(S(=O)(=O)Nc2ccc3c(c2)CC(=O)N([C@@H](C)CO)C[C@@H](C)[C@H](CN(C)CC2CCCCC2)O3)cc1
i	2	0	-1.5	-6.5	CC(C)NC(=O)Nc1ccc2c(c1)C(=O)N([C@@H](C)CO)C[C@@H](C)[C@H](CN(C)C(=O)c1ccncc1)OCCCC[C@H](C)O2
i	-2	3	-3.6	-2.2	C[C@@H]1CN([C@@H](C)CO)C(=O)c2cc(NS(=O)(=O)c3ccc(F)cc3)ccc2O[C@@H](C)CCCCO[C@@H]1CN(C)S(=O)(=O)c1ccccc1
i	-10	-24	2.4	7.7	COc1ccc(NC(=O)c2sc(=O)n(Cc3cccc(C(F)(F)F)c3)c2C)cc1OC
i	0	5	0.0	1.6	CN(C)C(=O)C[C@H]1CC[C@H]2[C@@H](COc3ccc(NC(=O)c4ccc(F)cc4)cc3C(=O)N2C)O1
i	6	7	1.0	-0.6	CCNC(=O)C1(C)CCCN1C(=O)c1ccc(N(C)C)cc1 (centres undefined)
i	2	7	-1.9	-0.8	C[C@H]1CN([C@@H](C)CO)C(=O)Cc2cc(NC(=O)NC3CCCCC3)ccc2O[C@@H]1CN(C)C(=O)Nc1ccc2c(c1)OCO2
i	4	9	-1.5	0.1	COc1ccc(-c2ccc3c(c2)[C@H]2[C@H](CCN2C(=O)CN2CCOCC2)[C@@H](CO)N3)cc1
i	3	5	0.9	-0.9	C[C@H]1CN([C@@H](C)CO)C(=O)Cc2cc(NC(=O)Nc3ccccc3)ccc2O[C@@H]1CN(C)C(=O)Nc1ccc(F)cc1
i	-1	-15	0.9	1.4	C[C@@H]1CN([C@@H](C)CO)C(=O)c2cc(NC(=O)Nc3cccc4ccccc34)ccc2O[C@@H]1CN(C)S(=O)(=O)c1cn(C)cn1
i	-57	-75	-19	-1.2	O=C(C[C@H]1CC[C@@H]2[C@H](COC[C@@H](O)CN2C(=O)Nc2cccc(Cl)c2)O1)NCc1ccccc1F
i	7	3	2.8	-48	COc1ccc([C@@H]2C[C@H]3[C@@H](CN2S(=O)(=O)c2ccccc2)C(=O)C[C@@H](c2ccc(OC)cc2)N3S(=O)(=O)c2ccccc2)cc1
i	1	3	-1.5	0.8	COc1cccc(S(=O)(=O)N(C)C[C@@H]2OCc3ccccc3-c3c(n(C)c4ccccc34)C(=O)N([C@H](C)CO)C[C@H]2C)c1
